PINK1 modulator = changes PINK1 expression; actives 0.2% (n = 410,000); PINK1 immunofluorescence, high-content cytometry, 24 h; AID 624263; Potency, µM (top dose mostly 76.6 µM), for inactives: at the top dose activation (PINK1 increase), actives largely listed as activators; active = well fitted activation curve with a large enough effect; inconclusive = small, poorly fitted or top-dose-only effect; inactive = flat fitted curve, though single readings scatter; cell line not stated here;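 note: potency is the fitted concentration of half-maximal effect; % of control where 0% means no effect; nearly all actives have a fitted effect of over 65% in size; a mitochondrial uncoupler was the plate control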
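Decision-based qHTS: stable cells, 24 h exposure to five compound concentrations, CCCP as control. Fixed cells stained for PINK1 plus nuclear, mitochondrial and cell markers, cytometer read.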
Six1-Eya2 blk = Six1/Eya2 interaction inhibition; AlphaScreen GST-Six1/His-Eya2 binding, biochemical; stronger effect = lower value; control for the full effect not named in the record; AID 651725; activity change, % (no concentration beside the values); actives 0.56% (n = 360,000); Q15475+O00167; in the data active = activity change below about -65%; inconclusive = about -30% to -65%; inactive = above about -30%; note: % is set by controls: 0 for no effect and ±100 for the full control effect; compound concentration not given in the record
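AlphaScreen luminescence read after one hour at 37 °C in darkness. Pin-transferred compounds met GST-Six1 and His-Eya2 protein (5X stock 250 nM/500 nM) plus glutathione donor and Ni-chelate acceptor beads (5X, 50 ug/mL).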
D2 agonist = activates the human D2 dopamine receptor; DiscoveRx PathHunter D2 beta-arrestin, luminescence, 90 min; 100% = 57 uM dopamine signal; activation, % (test concentration not listed); actives 0.084% (n = 360,000); in the data active = activation above about 40%; inconclusive = about 15% to 40%; inactive = below about 15%; note: compound concentration not given in the record; the text of the record calls up to 30% inactive
Target sequence (P14416 whole entry, looked up): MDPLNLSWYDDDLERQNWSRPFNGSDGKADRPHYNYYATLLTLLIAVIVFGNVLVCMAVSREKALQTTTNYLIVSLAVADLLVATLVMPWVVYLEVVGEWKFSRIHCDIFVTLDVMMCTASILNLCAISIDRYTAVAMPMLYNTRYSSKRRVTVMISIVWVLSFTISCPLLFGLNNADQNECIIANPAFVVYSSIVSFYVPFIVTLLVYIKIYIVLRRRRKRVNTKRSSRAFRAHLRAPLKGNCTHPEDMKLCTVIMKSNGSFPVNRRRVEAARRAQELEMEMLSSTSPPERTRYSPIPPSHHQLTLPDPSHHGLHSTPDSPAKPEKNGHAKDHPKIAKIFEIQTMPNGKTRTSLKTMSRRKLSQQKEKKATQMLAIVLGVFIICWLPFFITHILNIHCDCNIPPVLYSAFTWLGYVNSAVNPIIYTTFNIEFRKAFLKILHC
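DiscoveRx PathHunter D2 beta-arrestin cells (2,100/well) attached overnight, then compound-stimulated 90 min at 37 C in HBSS/10 mM HEPES/0.1% Tween-20 buffer; beta-galactosidase complementation read by luminescence after 1 h at ambient temperature. Dopamine 57 uM final (EC100) as control.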
TRPML1 ag = agonists of human TRPML1 channel; TRPML1-expressing cells, Ca2+ dye fluorescence, FDSS; host cell line not named in the record; reference of the full effect not given here; AID 624414; activation, % (no concentration beside the values); actives 0.12% (n = 410,000); in the data active = activation above about 50%; inconclusive = about 30% to 50%; inactive = below about 30%; note: 0% is about no effect; the text of the record puts the active cut at 80%
Target sequence (Q9GZU1 whole entry, looked up): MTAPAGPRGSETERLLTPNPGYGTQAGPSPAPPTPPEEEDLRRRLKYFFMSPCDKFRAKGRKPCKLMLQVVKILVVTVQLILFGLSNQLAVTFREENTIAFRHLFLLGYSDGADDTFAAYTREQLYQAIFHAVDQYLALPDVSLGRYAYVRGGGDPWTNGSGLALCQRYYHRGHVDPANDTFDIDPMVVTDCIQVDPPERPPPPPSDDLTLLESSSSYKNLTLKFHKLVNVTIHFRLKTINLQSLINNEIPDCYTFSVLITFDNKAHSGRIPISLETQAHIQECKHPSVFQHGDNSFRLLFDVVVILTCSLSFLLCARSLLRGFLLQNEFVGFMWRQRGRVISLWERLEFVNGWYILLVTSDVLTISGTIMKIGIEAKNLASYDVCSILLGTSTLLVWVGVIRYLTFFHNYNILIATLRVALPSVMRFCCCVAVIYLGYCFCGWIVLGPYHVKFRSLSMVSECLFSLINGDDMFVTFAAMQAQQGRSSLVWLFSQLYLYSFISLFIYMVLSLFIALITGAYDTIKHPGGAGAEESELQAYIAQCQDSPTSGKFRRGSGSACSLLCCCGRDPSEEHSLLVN
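Calcium fluorescence on an FDSS kinetic reader gave the read-out. Tet-induced TRPML1-DL cells were plated overnight, dye-loaded (Ca8 with quencher, 45-90 min, room temperature, dark), then read 110 s after compound addition, and again 110 s after 4uM final 54-4 (EC80).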
D2 potentiator = potentiates the human D2 dopamine receptor allosterically | DiscoveRx D2 beta-arrestin cells, luminescence, 90 min; 100% = 57 uM dopamine signal | potentiation, % (concentration not given with the values) | actives 0.23% (n = 360,000); active = potentiation of 50% or more; inconclusive = 30% to 50%; inactive = 30% or less;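 note: compound concentration not given in the record; tested on top of an EC20 dose of dopamine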
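PathHunter beta-arrestin assay in DiscoveRx D2 cells. Compounds were added with an EC20 of dopamine (50 nM final) for 90 min at 37 deg C. Luminescence was read 1 h after detection reagent, with 57 uM dopamine as the EC100 control.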
CtBP-E1A blk = inhibitors of CtBP/E1A interaction; AlphaScreen GST-E1A/His-CtBP binding, 1536-well; stronger effect = lower value; control for the full effect not named in the record; activity change, % (no concentration beside the values); actives 0.49% (n = 340,000); AID 651724; in the data active means activity change below about -65%; inconclusive means about -30% to -65%; inactive means above about -30%; note: % is set by controls: 0 for no effect and ±100 for the full control effect; compound concentration not given in the record
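Homogeneous bead-based format: GST-tagged E1A captured on glutathione donor beads, His-tagged CtBP on nickel acceptor beads; compounds precede bead addition by 2 h at 37 °C.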
The depositor's hits bear a star; ? = inconclusive; . = no result given; [ ] = remark or other dose.

SMILES	PINK1 modulator	Six1-Eya2 blk	D2 agonist	TRPML1 ag	D2 potentiator	CtBP-E1A blk
COc1cccc2sc(N(CCCN(C)C)C(=O)c3ccc(S(=O)(=O)N4CCCc5ccccc54)cc3)nc12	2.3%	-10	-7.2	-0.4	-39	-11
CC1CCN(CC(=O)NC2CCCCC2)CC1	1.3%	20	0.9	0.3	-3	-13
COc1ccc(/C=C/C(=O)NC(=S)Nc2ccccn2)cc1	0.1%	2	-1.9	3.0	-8	.
CSc1nc(Cc2ccccc2)cc(=O)[nH]1	-0.5%	3	1.7	0.5	-1	1
COc1cccc(-n2c(-c3ccc4[nH]c(C)c(C)c4c3)n[nH]c2=S)c1	1.0%	-10	4.4	2.1	-3	-17
COC(=O)CCC(=O)NNC(=O)CCCOc1ccc(Cl)cc1Cl	7.3%[38.3 µM]	-2	-1.9	0.3	2	5
COc1ccc(CN2CCN(CCCc3ccccc3)C(CCO)C2)c(O)c1 (stereo not given)	0.5%	-3	3.8	-0.7	-17	1
C=C(C)CN=C1SC(C(=O)Nc2sc3c(c2C(=O)OC)CCC3)C(N)=C1C(N)=O (stereo not given)	2.6%	-18	-1.5	0.2	11	4
CCOC(=O)c1cnn(-c2ccccc2)c1-n1cccc1C(=O)C(=O)Nc1ccccc1C(F)(F)F	2.3%	-22	-0.9	2.2	-29	-12
Cc1ccccc1OCc1nnc(SCC(=O)NC2CCCCC2)o1	1.2%	4	-3.3	0.5	-7	-4
CCNC(=S)NCc1ccc(OC)c(OC)c1	0.9%	-16	-1.6	-0.4	-4	19
O=C(COC(=O)c1ccc(F)cc1Cl)NC1CCCCCCC1	0.9%	16	-2.2	1.1	-4	35
Nc1ccc(C(=O)OCCCc2nc3ccccc3[nH]2)cc1	0.6%	6	-2.3	-0.1	-16	3
O=C(CSc1ccc(Cl)cc1)Nc1cccc(-c2nc3ncccc3o2)c1	-1.3%	-3	-0.5	3.8	-3	-4
CCOC(=O)c1c(NC(=O)C(C)S(=O)(=O)c2cn(CC)c3ccccc23)sc2c1CCCC2 (stereo not given)	-0.5%	-17	-0.3	0.8	1	-13
O=C(Nc1cc(Cl)ccc1N1CCOCC1)c1ccc(F)c(S(=O)(=O)N2CCOCC2)c1	-0.4%	10	-3.9	0.6	-10	-2
CCN(CC)CC(=O)c1c[nH]c2ccc(OC)cc12	0.3%	-2	-2.4	-0.3	-3	0
CCN(CC)S(=O)(=O)c1cccc(NC(=O)CCSc2ccc(Cl)cc2)c1	19%	29	-5.5	1.2	-25	9
S=c1[nH]nc(CNc2cccc(Cl)c2)o1	-0.9%	8	-3.5	-0.4	-7	7
CN(C)CCN(C(=O)c1ccc(S(=O)(=O)N2CCc3ccccc32)cc1)c1nc2ccc(F)cc2s1	-1.1%	-17	-5.7	0.1	-22	-21
CC(OC(=O)c1cccc(-n2cnnn2)c1)C(=O)Nc1ccc(F)c(F)c1F (stereo not given)	1.3%	-6	-1.4	0.7	-1	-2
O=S(=O)(c1cccc(C(F)(F)F)c1)N1CCCC1c1cccnc1 (stereo not given)	-0.3%	4	-5.1	0.5	-4	7
Cc1ccc(C2(C)NC(=O)N(CC(=O)Nc3ccc4c(c3)CCC4)C2=O)cc1 (stereo not given)	-1.2%	-1	-7.4	1.5	-8	-9
CCOC(=O)N1CCC(NC(=O)c2oc3c(C)c(C)ccc3c2C)CC1	1.4%	-10	7.8	3.5	10	-5
C[C@H](CO)N1C[C@H](C)[C@@H](CN(C)S(=O)(=O)c2ccc3ccccc3c2)OCc2cn(nn2)CCCC1=O	0.4%	-4	-0.1	.	.	3
(further entries)
SMILES	PINK1 modulator	Six1-Eya2 blk	D2 agonist	TRPML1 ag	D2 potentiator	CtBP-E1A blk
CCCCn1c(=O)[nH]c2c(oc3ccccc32)c1=O	-1.2%	0	-2.2	3.4	-11	7
C=CCOC(=O)C1=C[C@@H](c2csc3ccccc23)[C@H](CCCO)[C@@H](OCC)O1	0.5%	-6	-1.1	0.1	-20	1
COc1ccc(NC(=O)/C=C/c2ccccc2)cn1	0.7%	3	0.7	-1.4	-9	14
COc1cc(NC(=O)CSc2nc(C)c(C)c(C)n2)cc(OC)c1	1.1%	-5	-2.5	1.4	-2	-14
Cc1ccc(C(=O)NCC(=O)OC(C)C(=O)Nc2ccc(N(C)C)cc2)s1 (stereo not given)	0.8%	12	-1.4	1.1	0	.
CC1CCN(S(=O)(=O)c2ccc3c(ccn3CCC(=O)NC(C)C)c2)CC1	2.7%	26	4.6	0.4	-8	.
CCCCCOc1ccccc1C(=O)NCC(=O)O	1.1%	8	-1.3	-0.2	-3	11
COc1ccc(S(=O)(=O)N2CCOC23CCN(S(=O)(=O)c2ccccc2)CC3)cc1	-1.4%	3	-4.5	-0.1	-3	0
O=C(NCC(F)(F)F)Nc1ncccn1	1.3%	6	-1.9	-0.3	15	2
O=C(CCCSc1ccc(Cl)cc1)Nc1cc(S(=O)(=O)N2CCOCC2)ccc1O	?	2	1.8	0.5	3	-3
O=C(Nc1cccnc1)c1ccc2nc(-c3ccccc3)c(-c3ccccc3)nc2c1	1.9%	-10	5.9	-0.2	-2	-4
CCS(=O)(=O)c1ccc(O)c(NC(=O)Nc2cccc3ccccc23)c1	6.5%	-3	-5.0	0.6	-2	-1
NS(=O)(=O)c1ccc(-c2ccc(C=O)o2)cc1	1.3%	11	-3.8	-0.6	-4	.
O=C(O)CCCN1C(=O)C2C3CCC(C3)C2C1=O (stereo not given)	-0.2%	21	-1.3	0.0	4	12
O=C(c1oc(=O)c2ccccc2c1-c1ccccc1)N1CCN(C2CCCCC2)CC1	4.9%	0	-5.2	0.7	-8	3
O=C(OC1CCOC1=O)c1cc(Cl)ccc1[N+](=O)[O-] (stereo not given)	2.9%	4	6.7	0.0	1	5
COc1ccccc1NC(=O)CCCc1nc(-c2ccc(OC)c(OC)c2)no1	0.3%	-2	-2.4	-0.5	-8	-5
NC[C@H]1O[C@H](O[C@H]2[C@H](O)[C@@H](O[C@H]3O[C@H](CO)[C@@H](O)[C@H](N)[C@H]3O)[C@H](N)C[C@@H]2N)[C@H](N)C[C@@H]1O	0.1%	-2	-1.8	0.3	6	2
CC(=O)C(Cc1cnc(Cl)s1)(Cc1cnc(Cl)s1)C(C)=O	-0.9%	15	-1.2	0.1	-3	-2
COc1cccc(-c2cccc(NC(=O)C3CCN(Cc4ccon4)CC3)c2)c1	0.0%	-1	-1.1	0.1	-7	.
CC(C)c1nnc(NC(=O)CCC(=O)NC2CCCCCCC2)s1	5.7%[38.3 µM]	2	-1.5	3.0	6	0
COc1ccc(OC)c(C2CC(=O)c3c([nH]c(C(=O)OCC4CCCO4)c3C)C2)c1 (stereo not given)	2.9%	-14	0.0	2.5	4	-3
CN(CC(=O)O/N=C(\N)c1ccccn1)S(=O)(=O)c1cc(Cl)ccc1Cl	3.6%[38.3 µM]	-9	1.9	-0.1	4	-6
Cn1cnnc1SCC(=O)Nc1ccc(Cl)cn1	0.7%	-6	4.5	-0.4	-2	-4
O=C(CCS(=O)(=O)c1ccc(Cl)cc1)Nc1nnc(-c2ccco2)o1	-0.4%	-20	-1.7	0.5	-10	-22

Single values from the list:
PINK1 modulator with CCOC(=O)c1c(NC(=O)C(C)S(=O)(=O)c2cn(CC)c3ccccc23)sc2c1CCCC2 (stereo not given) → -0.5%
D2 agonist with CCCCCOc1ccccc1C(=O)NCC(=O)O → -1.3

Given with values under each structure: entries from further up
Sequence of screens – PINK1 modulator | Six1-Eya2 blk | D2 agonist | TRPML1 ag | D2 potentiator | CtBP-E1A blk
COc1ccc(S(=O)(=O)N2CCOC23CCN(S(=O)(=O)c2ccccc2)CC3)cc1
    -1.4% | 3 | -4.5 | -0.1 | -3 | 0
O=C(NCC(F)(F)F)Nc1ncccn1
    1.3% | 6 | -1.9 | -0.3 | 15 | 2
O=C(CCCSc1ccc(Cl)cc1)Nc1cc(S(=O)(=O)N2CCOCC2)ccc1O
    ? | 2 | 1.8 | 0.5 | 3 | -3
O=C(Nc1cccnc1)c1ccc2nc(-c3ccccc3)c(-c3ccccc3)nc2c1
    1.9% | -10 | 5.9 | -0.2 | -2 | -4
CCS(=O)(=O)c1ccc(O)c(NC(=O)Nc2cccc3ccccc23)c1
    6.5% | -3 | -5.0 | 0.6 | -2 | -1
NS(=O)(=O)c1ccc(-c2ccc(C=O)o2)cc1
    1.3% | 11 | -3.8 | -0.6 | -4 | .
O=C(O)CCCN1C(=O)C2C3CCC(C3)C2C1=O (stereo not given)
    -0.2% | 21 | -1.3 | 0.0 | 4 | 12

Carrying on.
SMILES	PINK1 modulator	Six1-Eya2 blk	D2 agonist	TRPML1 ag	D2 potentiator	CtBP-E1A blk
O=C1NC2(CCCCC2)C(=O)N1CCN1C(=O)c2ccccc2C1=O	0.6%	9	-9.3	1.0	-35	.
O=C1C=CC(=O)C(CNc2ccc(C(=O)OCc3ccccc3)cc2)=C1	10%	-17	?	-0.2	13	-15
O/N=C(/CN(O)/C=C1/C=CC=N1)c1cccs1	-0.7%	2	-1.4	0.8	-7	0
COC/C=C/C1=CC2=CC(=O)C(C)(OC(=O)c3cnc4ccccc4n3)C(=O)C2=CN1CC1CC1 (stereo not given)	0.5%	-3	1.6	-0.6	17	-2
CN(C)c1ccc(C=C2C(=O)OC(C)(C(C)(C)C)OC2=O)cc1 (stereo not given)	1.1%	14	-1.0	-0.9	-30	-2
CC1=C(C(=O)N2CCCCCC2)C2(CCC(C)CC2)OC1=O (stereo not given)	.	4	0.7	-0.2	-2	-3
CC(C)c1ccc(OC(=O)c2ccc3c(=O)n4c(nc3c2)CCC4)cc1	5.1%	-5	2.2	1.5	-5	5
CN(C)CCC(C(=O)c1ccccc1)c1cccnc1 (stereo not given)	-4.2%	5	-3.8	1.4	-22	3
O=C1OCC2=C1C(c1ccccc1)CC(=O)N2c1ccccc1 (stereo not given)	-1.0%	-2	3.8	1.3	-3	1
CSCCC(NC(=O)COc1ccccc1)C(=O)Nc1ccc(C)cc1 (stereo not given)	0.0%	0	-1.5	-1.8	-16	0
O=C(c1ccco1)N1CCN(C(=O)C2Cc3ccccc3CN2S(=O)(=O)c2ccc(F)cc2)CC1 (stereo not given)	0.9%	1	-1.8	-0.8	-15	2
COc1ccc(Cl)cc1N(CC(=O)NC(C(C)C)C(C)C)S(C)(=O)=O	2.4%	3	-1.5	0.0	-2	-1
CCOC(=O)C1=C(Nc2ccc(OC)cc2)C(N)=NC1=N	7.6%	-13	-3.4	-0.5	-14	5
CC(C)(C)c1ccccc1OCCN1CCCC1	0.5%[38.3 µM]	-5	3.2	0.4	-19	1
COc1ccc(-n2nnc3c(=O)n(CC(=O)N4CCCCC4)cnc32)cc1	-1.9%	-3	-6.4	-0.1	-7	1
CCn1ccnc1C(O)c1ccc(N(C)C)cc1 (stereo not given)	1.6%[38.3 µM]	-2	-2.7	-0.8	-3	2
CC(C)(C#N)Nc1ccccc1	-5.6%[38.3 µM]	5	-0.3	0.9	-5	1
Cc1ccc(S(=O)(=O)Nc2ccccc2CNc2c(C)n(C)n(-c3ccccc3)c2=O)cc1	.	-4	-0.9	0.1	12	-8

Compounds as they come; 1.3% or so of the library scored in one or more.
